DUX4 inh: blocks DUX4-driven transcriptional activation; 293T-iDUX4 ZSCAN4-Gaussia luciferase reporter, 24 h; active compounds read low; activity change, negative = inhibition, % (test concentration not listed); 0.8% of 37,000 active; AID 1224904;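 active = -10% or lower and over 25 points stronger than a control reporter; inconclusive = -10% or lower with a smaller gap; inactive = above -10%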;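 note: 0% = median of neutral control wells and -100% = median of positive control wells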
DUX4 inh difference: second read-out of DUX4 inh, no call of its own (marks repeat the call); Gaussia minus Italica difference, %; measured here: selective DUX4 reporter inhibition;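 worked out from the two reporters; negative = selective loss of the DUX4 reporter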
DUX4 inh control: also measured in DUX4 inh; calls as there; activity change, negative = inhibition, %; measured here: Italica tet-on control reporter;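 0 = neutral control and -100 = positive control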
Active calls of the source: *; ? = inconclusive; / = no result given; & = joins results of further samples. Some of the compounds tested; the hit share may differ from the screen's.

SMILES	DUX4 inh	DUX4 inh difference	DUX4 inh control
CC(=O)NC[C@@H]1[C@@H](c2ccc(-c3ccccc3)cc2)[C@@H](CO)N1C(=O)C1CC1	2.4	2.6	-0.2
O=C(C[C@H]1C=C[C@H](NS(=O)(=O)c2ccc(F)cc2)[C@H](CO)O1)NCc1ccncn1	-0.5	-2.4	1.9
CO[C@H]1CN(C)C(=O)c2ccc(NC(=O)Nc3ccc4c(c3)OCO4)cc2OC[C@H](C)NC[C@@H]1C	-5.5	-10.8	5.3
COc1ccc2c3c([nH]c2c1)[C@H](CO)N(C(=O)NC(C)C)CC31CN(Cc2ccccc2)C1	?	/	/
COCC#Cc1ccc([C@H]2[C@@H](CO)N3C(=O)CN(C(=O)c4ccncc4)C[C@H]23)cc1	6.5	0.6	5.9
COc1ccc2c3c([nH]c2c1)[C@H](CO)N(Cc1ccccc1)CC31CN(C)C1	?	/	/
CO[C@@H](CN(C)Cc1cc(F)ccc1F)[C@H](C)CN([C@@H](C)CO)S(=O)(=O)c1ccc(Cl)cc1	0.6	-4.4	5.0
COC(=O)[C@H]1[C@H](CO)[C@H]2Cn3c(ccc(-c4ccccc4OC)c3=O)[C@H]2N1C(=O)c1cnccn1	7.1	3.1	4.0
N#C[C@H]1N[C@H](CO)[C@@H]1c1ccc(C#CC2CCCCC2)cc1	3.5	3.8	-0.3
C[C@@H]1CCCCO[C@H](CN(C)S(=O)(=O)c2ccc(Cl)cc2)[C@@H](C)CN([C@@H](C)CO)C(=O)c2cc(NC(=O)Nc3ccc(C(F)(F)F)cc3)ccc2O1	2.8	7.2	-4.4
CN1c2ccc(-c3cccc(C#N)c3)cc2[C@@H]2[C@@H](CCN2S(=O)(=O)c2ccccc2)[C@H]1CO	?	/	/
O=C(c1ccc2c(c1)OCO2)N1CC[C@@H]2[C@H](CO)Nc3ccc(-c4ccc(F)cc4)cc3[C@@H]21	?	/	/
COCCNC(=O)C[C@H]1C[C@H]2c3cc(NC(=O)C4CCC4)ccc3O[C@H]2[C@H](CO)O1	2.1	-2.2	4.3
COc1ccccc1-c1cn(CC[C@H]2CC[C@H](NC(=O)C3CCCCC3)[C@H](CO)O2)nn1	-2.1	6.2	-8.3
O=C(C[C@H]1C=C[C@@H](NC(=O)Nc2ccc3c(c2)OCO3)[C@H](CO)O1)NCCCN1CCOCC1	4.9	3.0	1.9
O=C(Nc1ccc(F)cc1)N1C[C@H]2[C@@H](c3ccccc31)[C@H](CO)N2Cc1ccccc1Cl	-2.7	1.5	-4.2
CCc1csc(N2[C@@H](C#N)[C@@H](c3ccc(-c4ccc(F)cc4)cc3)[C@@H]2CO)n1	-1.2	-3.2	2.0
COCC(=O)N1CC(=O)N2[C@@H](CO)[C@@H](c3ccc(-c4ccccc4F)cc3)[C@@H]2C1	6.8	6.7	0.1
CCCNC(=O)[C@@H]1[C@@H](CO)[C@@H]2Cn3c(ccc(/C=C/c4ccccc4)c3=O)[C@H]1N2CCC	1.7	-0.5	2.2
CC(C)C#Cc1ccc([C@@H]2[C@@H](C#N)N(C(=O)C3CC3)[C@@H]2CO)cc1	-3.6	-1.7	-1.8
N#C[C@H]1[C@@H](c2ccccc2C2=CCCCC2)[C@H](CO)N1C(=O)c1ccccn1	1.7	5.5	-3.9
COc1ccc2c3c(n(C)c2c1)[C@@H](CO)N(C(=O)NC(C)C)CC31CCN(C(C)=O)CC1	13.6	6.8	6.8
C[C@H]1CN([C@@H](C)CO)C(=O)c2c(c3ccccc3n2C)-c2ccccc2CO[C@@H]1CN(C)S(=O)(=O)c1ccsc1	-0.4	4.7	-5.1
CCCNC(=O)N1[C@H](CO)[C@H](c2ccccc2-c2cccc(C)c2)[C@@H]1C#N	?	/	/
O=C(NCC1CC1)[C@@H]1[C@@H](CO)[C@@H]2Cn3c(ccc(-c4cccc(F)c4)c3=O)[C@@H]2N1CC1CC1	-1.9	3.0	-4.9

Ordered by length of the SMILES (highest first): part of the list above
SMILES	DUX4 inh	DUX4 inh difference	DUX4 inh control
C[C@H]1CN([C@@H](C)CO)C(=O)c2c(c3ccccc3n2C)-c2ccccc2CO[C@@H]1CN(C)S(=O)(=O)c1ccsc1	-0.4	4.7	-5.1
O=C(NCC1CC1)[C@@H]1[C@@H](CO)[C@@H]2Cn3c(ccc(-c4cccc(F)c4)c3=O)[C@@H]2N1CC1CC1	-1.9	3.0	-4.9
CC(=O)NC[C@@H]1[C@@H](c2ccc(-c3ccccc3)cc2)[C@@H](CO)N1C(=O)C1CC1	2.4	2.6	-0.2
COc1ccc2c3c(n(C)c2c1)[C@@H](CO)N(C(=O)NC(C)C)CC31CCN(C(C)=O)CC1	13.6	6.8	6.8
COc1ccccc1-c1cn(CC[C@H]2CC[C@H](NC(=O)C3CCCCC3)[C@H](CO)O2)nn1	-2.1	6.2	-8.3
CC(C)C#Cc1ccc([C@@H]2[C@@H](C#N)N(C(=O)C3CC3)[C@@H]2CO)cc1	-3.6	-1.7	-1.8

Next results
SMILES	DUX4 inh	DUX4 inh difference	DUX4 inh control
O=C(C[C@@H]1C[C@H]2c3cc(NC(=O)NC4CCCC4)ccc3O[C@H]2[C@@H](CO)O1)NCc1ccccc1F	0.4	-0.7	1.0
CCCN(C)C[C@@H]1Oc2cc(-c3ccc(F)cc3)ccc2S(=O)(=O)N([C@@H](C)CO)C[C@@H]1C	4.5	4.0	0.5
CCCNC(=O)C[C@@H]1CC[C@@H]2[C@H](COC[C@H](O)CN2Cc2ccccc2F)O1	2.9	1.4	1.5
CN(C)C(=O)C[C@@H]1CC[C@H]2[C@@H](COC[C@@H](O)CN2S(=O)(=O)c2ccccc2Cl)O1	2.3	4.8	-2.4
COc1ccc2c3c([nH]c2c1)[C@@H](CO)N(Cc1ccc(F)cc1)CC31CN(C(=O)NC(C)C)C1	5.5	-5.7	11.2
Cc1noc(C)c1S(=O)(=O)Nc1cccc2c1O[C@@H](CN(C)S(=O)(=O)c1ccc(Cl)cc1)[C@@H](C)CN([C@H](C)CO)C2=O	-0.9	-1.7	0.8
COCC#Cc1ccc2c(c1)O[C@H](CN(C)S(=O)(=O)c1ccc(OC)cc1)[C@@H](C)CN([C@H](C)CO)S2(=O)=O	1.9	-1.3	3.2
COc1ccc(S(=O)(=O)Nc2ccc3c(c2)CC(=O)N([C@@H](C)CO)C[C@H](C)[C@H](CN(C)CC2CC2)O3)cc1	2.5	1.4	1.1
C[C@@H]1CN([C@@H](C)CO)C(=O)c2c(c3ccccc3n2C)-c2ccccc2CO[C@H]1CN(C)Cc1ccc(F)cc1	?	/	/
CCCN1C[C@@H](C)[C@@H](OC)CN(C)C(=O)c2ccc(NC(=O)c3ccc(F)cc3)cc2OC[C@@H]1C	1.8	4.1	-2.3
O=C(Nc1cccc(F)c1)N1CC(=O)N2[C@@H](CO)[C@H](c3ccc(C#CCC4CCCC4)cc3)[C@@H]2C1	-0.9	-12.7	11.9
C/C=C/c1ccc([C@H]2[C@@H](CO)N(C(=O)NCCC)[C@@H]2CNC(=O)C2CC2)cc1	-3.7	-4.7	1.0
Cc1ccccc1-c1ccc([C@H]2[C@H](CO)N3C(=O)CN(S(C)(=O)=O)C[C@@H]23)cc1	12.7	12.7	0.0
CO[C@@H](CN(C)Cc1cc(F)ccc1F)[C@@H](C)CN([C@@H](C)CO)S(=O)(=O)c1ccc(Cl)cc1	-3.4	-3.6	0.2
C[C@H]1CN([C@@H](C)CO)C(=O)c2c(c3ccccc3n2C)-c2ccccc2CO[C@@H]1CN(C)S(=O)(=O)c1ccccc1F	?	/	/
OC[C@@H]1[C@@H](c2ccc(C#CC3CCCC3)cc2)[C@@H]2CN(CCC(F)(F)F)CCCCN12	-8.7	-9.4	0.7
C[C@H](CO)N1C[C@H](C)[C@H](CN(C)S(=O)(=O)c2cn(C)cn2)OCc2cn(nn2)CCCC1=O	0.8	-2.9	3.7
COc1ccc(-c2cnc3c(c2)C(=O)N([C@H](C)CO)C[C@H](C)[C@@H](CN(C)C(=O)C2CCC2)O3)cc1	-6.1	-7.4	1.3
CCC(=O)N(C)C[C@H]1[C@@H](c2ccc(C3=CCCCC3)cc2)[C@@H](CO)N1C(C)=O	3.4	-0.3	3.7
COc1ccc2c3c([nH]c2c1)[C@@H](CO)N(CC1CC1)CC31CN(C(=O)c2ccc(F)cc2)C1	-6.1	-0.4	-5.6
O=C(CC(F)(F)F)N1C[C@H]2[C@@H](c3ccccc31)[C@@H](CO)N2C(=O)Cc1ccccc1	6.4	6.1	0.2
O=C(NCCc1ccccc1)[C@H]1[C@H](CO)[C@H]2Cn3c(cccc3=O)[C@@H]1N2C(=O)C1CCCC1	-0.6	3.4	-4.1
CN(C)C(=O)c1cccc(-c2ccc(C3[C@H]4CNC[C@@H]3N4Cc3cccc(C(F)(F)F)c3)cc2)c1 (stereo partly specified)	2.1&6.9	-2.8&21.4	4.9&-14.5
CO[C@@H]1CN(C)C(=O)c2cc(NC(=O)CC(F)(F)F)ccc2OC[C@@H](C)N(CC2CC2)C[C@H]1C	5.9	1.7	4.3
CCCNC(=O)C[C@H]1CC[C@@H]2[C@@H](COc3ccc(NC(=O)c4cc(F)cc(F)c4)cc3C(=O)N2C)O1	-1.3	-2.0	0.6

(next part)
SMILES	DUX4 inh	DUX4 inh difference	DUX4 inh control
COc1ccc2c3c([nH]c2c1)[C@H](CO)N(Cc1ccncc1)CC31CN(CC2CCOCC2)C1	7.1	10.4	-3.2
CCC(=O)N1CC2(C1)[C@H](c1ccccc1)[C@@H](CO)N2C(=O)c1cccnc1	4.3	-3.0	7.3
CN(C)CC(=O)N1[C@H](C#N)[C@@H](c2ccccc2-c2ccccc2F)[C@@H]1CO	14.0	8.0	6.0
CCC(=O)N1[C@@H]2Cn3c(ccc(/C=C/c4ccccc4)c3=O)[C@H]1[C@@H](C(=O)N(C)C)[C@@H]2CO	-4.4	3.1	-7.5
COc1ccc(NC(=O)N(C)C[C@H]2OCc3cn(nn3)CCCC(=O)N([C@H](C)CO)C[C@@H]2C)cc1	-2.5	-5.6	3.1
COc1cccc(S(=O)(=O)Nc2ccc3c(c2)C(=O)N(C)C[C@@H](OC)[C@@H](C)CN(Cc2ccccc2F)[C@H](C)CO3)c1	?	/	/
N#C[C@H]1[C@@H](c2ccccc2-c2cccc(F)c2)[C@H](CO)N1C(=O)C1CC1	15.9	-2.1	18.0
CCC(=O)N1C[C@H](O)COC[C@@H]2O[C@@H](CC(=O)NCc3cc(F)cc(F)c3)CC[C@H]21	4.6	3.1	1.5
CCCN1[C@@H]2c3ccc(-c4ccncc4)c(=O)n3C[C@@H]2[C@@H](CO)[C@@H]1C(=O)N1CCOCC1	3.1	3.6	-0.6
C[C@@H]1COCc2cnnn2CC[C@H](Cc2ccccc2)C(=O)N1	-3.5	-1.1	-2.5
Cc1ccccc1-c1cnc2c(c1)C(=O)N([C@H](C)CO)C[C@H](C)[C@@H](CN(C)Cc1ccccc1F)O2	-1.9	-2.5	0.6
CS(=O)(=O)Nc1ccc2c(c1)[C@@H]1C[C@H](CC(=O)N3CCc4ccccc4C3)O[C@@H](CO)[C@@H]1O2	4.2	3.7	0.5
CN1C(=O)c2cc(NC(=O)c3cccc(F)c3)ccc2OC[C@@H]2O[C@@H](CC(=O)NCC3CCCCC3)CC[C@H]21	0.1&-1.3	0.7&3.0	-0.6&-4.3
CC=Cc1ccc2n(c1=O)C[C@H]1[C@H](CO)[C@@H](C(=O)NC3CCC3)[C@@H]2N1Cc1ccccc1 (mixture of isomers)	2.8	6.5	-3.6
O=C(CC(F)(F)F)N1C[C@@H]2[C@H](c3ccccc31)[C@H](CO)N2CC1CCCCC1	1.2	-2.3	3.5
C[C@H](NC(=O)[C@@H]1[C@@H](CO)[C@@H]2Cn3c(cccc3=O)[C@@H]2N1CCC(F)(F)F)c1ccccc1	5.4	-4.8	10.2
CO[C@H]1CN(C)C(=O)c2ccc(NC(=O)C3CC3)cc2OC[C@H](C)N(CCc2ccccc2)C[C@@H]1C	-8.0	-7.5	-0.5
C[C@H](CO)N1C[C@H](C)[C@H](CN(C)Cc2ccc(Cl)c(Cl)c2)OCc2cn(nn2)CCCC1=O	-5.6	-1.4	-4.2
O=C(C[C@@H]1CC[C@H]2[C@@H](COC[C@H](O)CN2C(=O)c2ccncc2)O1)NC1CCC1	5.3	1.0	4.3
C[C@H](CO)N1C[C@H](C)[C@H](CN(C)Cc2ccncc2)Oc2c(NC(=O)C3CCOCC3)cccc2C1=O	-2.0	-6.8	4.8
CCC(=O)Nc1ccc2c(c1)C(=O)N(C)C[C@@H](OC)[C@@H](C)CN(C(=O)COC)[C@@H](C)CO2	2.6	-2.8	5.4
O=C(C[C@H]1C[C@@H]2c3cc(NC(=O)c4cccnc4)ccc3O[C@@H]2[C@@H](CO)O1)NC1CCCCC1	1.3	1.0	0.4
COc1ccc(NC(=O)N2CCCCN3[C@H](CO)[C@H](c4ccc(-c5ccccc5F)cc4)[C@H]3C2)cc1	?	/	/
COc1cccc(CN(C)C[C@@H]2OCc3cnnn3CCCC(=O)N([C@@H](C)CO)C[C@H]2C)c1	-1.1	-1.4	0.2
COC(=O)C[C@@H]1CC[C@@H]2[C@H](COc3ccc(NC(=O)c4cccc(F)c4)cc3C(=O)N2C)O1	-1.6	-2.6	1.0
CCC(=O)N1[C@@H]2CN(S(=O)(=O)c3ccccc3C)c3ccccc3[C@@H]2[C@@H]1CO	-1.4	0.6	-2.0
CCC(=O)N1[C@H](C#N)[C@H](c2ccccc2-c2ccccc2)[C@H]1CO	14.1	8.6	5.5
O=C(Cc1cccnc1)N1CC(=O)N2[C@@H](CO)[C@@H](c3ccc(C#CC4CCCCC4)cc3)[C@@H]2C1	-1.7	7.4	-9.1
C[C@H]1CN([C@@H](C)CO)C(=O)Cc2cc(NC(=O)CCCCCC(=O)Nc3ccccc3N)ccc2O[C@H]1CN(C)S(=O)(=O)c1cccs1	2.9	0.7	2.2
COc1ccc(CNC(=O)N(C)C[C@H]2OCc3ccccc3-c3ccccc3C(=O)N([C@@H](C)CO)C[C@@H]2C)cc1	18.6	10.7	7.9

High-throughput results as filed in PubChem.
